Screening data (PubChem BioAssay)
TSHR agonist: qHTS Assay for Agonists of the Thyroid Stimulating Hormone Receptor. Thyrotropin receptor (Homo sapiens), P16473. HEK293-CNG-TSHR cells (CNG channel as cAMP sensor), membrane potential dye, cAMP. Potency, µM (titrated, usually from 57.1 µM), inactives show top-dose activation, hits mostly activators. 73,000 compounds, 0.48% hits; active = well fitted activation curve of enough size with the parental cells flat; inconclusive = any curve in the parental cells; inactive = parental cells flat and receptor cells flat or falling; also: potency is read from the fitted curve at half-maximal effect; % of control where 0% means no effect; weak receptor curves with flat parental cells got no call and are not listed
Target sequence (P16473 whole entry, looked up): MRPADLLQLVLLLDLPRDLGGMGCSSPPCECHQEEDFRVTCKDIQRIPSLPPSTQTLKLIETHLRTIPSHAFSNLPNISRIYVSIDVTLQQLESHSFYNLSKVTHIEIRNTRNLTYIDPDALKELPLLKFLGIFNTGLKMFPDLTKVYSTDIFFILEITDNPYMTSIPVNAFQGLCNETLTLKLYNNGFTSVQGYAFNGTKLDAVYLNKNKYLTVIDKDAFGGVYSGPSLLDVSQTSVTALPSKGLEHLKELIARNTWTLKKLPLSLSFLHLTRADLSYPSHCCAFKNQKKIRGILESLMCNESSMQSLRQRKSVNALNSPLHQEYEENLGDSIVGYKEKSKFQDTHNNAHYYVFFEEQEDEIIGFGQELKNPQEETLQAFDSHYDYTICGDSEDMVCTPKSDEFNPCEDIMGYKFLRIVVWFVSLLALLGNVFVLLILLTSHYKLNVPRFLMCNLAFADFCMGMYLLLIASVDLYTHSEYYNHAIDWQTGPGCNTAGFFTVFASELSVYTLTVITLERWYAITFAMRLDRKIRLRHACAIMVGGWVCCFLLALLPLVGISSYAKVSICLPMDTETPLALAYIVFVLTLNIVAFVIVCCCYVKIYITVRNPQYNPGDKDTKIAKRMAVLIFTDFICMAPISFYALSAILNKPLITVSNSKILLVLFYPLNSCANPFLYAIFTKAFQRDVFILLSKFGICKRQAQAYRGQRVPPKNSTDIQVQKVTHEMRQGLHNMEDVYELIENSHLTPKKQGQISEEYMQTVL
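HEK 293 cells stably expressing TSHR and a cAMP-gated CNG channel; parental CNG-only cells as counterscreen. Cells preloaded 60 min with membrane potential dye plus 100 uM RO 20-1724, then compound 30 min; fluorescence read at 590 nm.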
AID923: qHTS Assay for Allosteric/Competitive Inhibitors of Caspase-1: Spectroscopic Profiling in AFC Spectral Region. compound fluorescence, AFC spectral region (405/520 nm); almost no hit is shown here. Potency, µM (top dose mostly 57.5 µM), for inactives: at the highest dose fluorescence increase, hits mostly activators. AID 923, 2007. 75,000 compounds, 1.1% hits; active = well fitted activation curve with a large enough effect; inconclusive = small, poorly fitted or top-dose-only effect;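 also: potency is read from the fitted curve at half-maximal effect; 0% is about no effect; scaled to a free AFC standard on each plate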
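Compound autofluorescence profiled at 405 nm ex/520 nm em during kinetic caspase 1 run (50 nM enzyme, 5 uM Ac-WEHD-AFC, HEPES pH 7.5, 10 mM DTT). Titration up to 57 uM; baseline from regression intercept, normalized to AFC standard curve.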
Resorufin autofl: qHTS Assay for Spectroscopic Profiling in Resorufin Spectral Region. Compound fluorescence, resorufin region 547/598 nm, buffer; stronger effect = higher value. max dye-equivalent concentration, M. 59,000 compounds, 0.04% hits. AID 588, 2007; active = above 10 nM dye equivalent; inconclusive = 1 to 10 nM; inactive = 1 nM or less; a few of its hits are not listed in these tables; also: highest value over a series up to 38 µM
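Read-out: intrinsic compound fluorescence at ex 547/em 598 nm after 15 min at RT in pH 8.0 Tris (100 mM). Values expressed as resorufin-equivalent concentration from per-plate standard series.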
A488 fluor: qHTS Assay for Spectroscopic Profiling in A488 Spectral Region. compound autofluorescence, A488 spectral region, dye equivalency; stronger effect = higher value. 59,000 compounds, 0.1% hits. max dye equivalency, M. AID 591, 2007; active = above 10 nM dye equivalent; inconclusive = 1 to 10 nM; inactive = 1 nM or less; about half of its hits are not listed in these tables;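 also: highest value over a series up to 38 µM; compound alone in buffer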
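Read-out: relative fluorescence at 480/540 nm, expressed as Alexa 488 dye-equivalent concentration from a six-point A488 standard included per plate. Conditions: 100 mM Tris, pH 8.0; 15 min incubation, room temperature.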
A647 fluor: qHTS Assay for Spectroscopic Profiling in A647 Spectral Region | Compound fluorescence, A647 channel (570/671 nm), Tris buffer | 59,000 tested, under 10 active | max dye-equivalent concentration, M; active means above 1 µM dye equivalent; inconclusive means 0.1 to 1 µM; inactive means 0.1 µM or less;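 also: values scaled relative to a standard on each plate; highest value over a series up to 38 µM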
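Compound fluorescence was measured in 100 mM Tris buffer, pH 8.0, after 15 min at room temperature, using 570 nm excitation and 671 nm emission filters. Signal was normalized to a per-plate Alexa 647 standard curve and expressed as dye-equivalent concentration at each compound concentration.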
* marks the source's active call; other numbers are inactive results; i = inactive; ? = inconclusive; . = no result given; [ ] = another dose, or the depositor's remark. Not all compounds are listed. The share of hits here may be higher or lower than overall.

Below each SMILES – TSHR agonist	AID923	Resorufin autofl	A488 fluor	A647 fluor
O=C(CSc1ccc2nnc(-c3ccncc3)n2n1)NCC1CCCO1 (centres undefined)
  -3%	-1.8%	.	.	.
O=C(NC(=O)c1cccc(OC(F)(F)C(F)F)c1)OC1CCS(=O)(=O)C1 (centres undefined)
  -1%	0.8%	i	i	2.6e-08
CCC(=O)N(Cc1cc2cc(OC)ccc2[nH]c1=O)c1cccc(C)c1
  2%	0.1%	i	i	1.5e-08
CN(Cc1ccco1)c1cc(-c2cccc(C#N)c2)ncn1
  6%	3.1%	i	i	1e-09
c1ccc2[nH]c(CN3CCCCCC3)nc2c1
  -1%	5.9%	i	i	4.5e-08
c1ccc2[nH]c(SCCN3CCOCC3)nc2c1
  -5%	1.9%	.	.	.
COc1ccc(-n2c(C)nc3c(cnn3-c3ccc(C)c(C)c3)c2=O)cc1
  13%	-0.7%	.	.	.
CN1CCN(c2nc3c(c(=O)n(C)c(=O)n3C)n2CC(N)=O)CC1
  1%	-0.9%	i	i	1e-09
CN(CCc1ccccn1)C(=O)Nc1ccc(F)cc1
  -4%	-0.3%	i	i	1e-09
Cc1cccc(CN2CCN(CC(=O)NCc3ccc(F)cc3)C2=O)c1
  6%	2.2%	.	.	.

Single records, as listed above. Screens in order: TSHR agonist | AID923 | Resorufin autofl | A488 fluor | A647 fluor
CN(CCc1ccccn1)C(=O)Nc1ccc(F)cc1 across the screens: -4% | -0.3% | i | i | 1e-09
CN(Cc1ccco1)c1cc(-c2cccc(C#N)c2)ncn1 across the screens: 6% | 3.1% | i | i | 1e-09
c1ccc2[nH]c(CN3CCCCCC3)nc2c1 across the screens: -1% | 5.9% | i | i | 4.5e-08

Quoted from the listing.
`c1ccc2[nH]c(CN3CCCCCC3)nc2c1` in AID923 = 5.9%
`c1ccc2[nH]c(SCCN3CCOCC3)nc2c1` in TSHR agonist = -5%

Next part.
Below each SMILES – TSHR agonist	AID923	Resorufin autofl	A488 fluor	A647 fluor
COc1ccccc1NC(=O)CN1C(=O)NC(C)(C)C1=O
  0%	-1.1%	i	i	1.4e-08
COC(=O)c1ccc(CSc2ncnc3c2nnn3-c2ccc(OC)cc2)o1
  10%	3.5%	.	.	.
CC12CCC(C(=O)N(CCC#N)CCC#N)(CC1=O)C2(C)C (centres undefined)
  .	.	i	i	1.9e-08
O=C(OC1CCOC1=O)c1ccc2ncsc2c1 (centres undefined)
  -15%	0.1%	i	i	1.3e-08
CCOc1ccc(-c2nnc3ccc(SCC(=O)N4CCCCC4)nn23)cc1
  8%	-1.0%	.	.	.
O=C1NC(c2cccs2)Nc2sc3c(c21)CCCC3 (centres undefined)
  -3%	-0.2%	i	i	2.6e-08
C[C@H]1[C@H](O)[C@@H](C)C=CC=CC=CC=CC=CC=CC=C[C@H](O[C@@H]2O[C@@H](C)[C@H](O)[C@@H](N)[C@@H]2O)C[C@@H]2O[C@](O)(C[C@@H](O)C[C@@H](O)[C@@H](O)CC[C@@H](O)C[C@@H](O)CC(=O)O[C@H]1C)C[C@H](O)[C@H]2C(=O)O
  10%[11.4 µM]	-1.1%[11.5 µM]	i	i	1e-09
Cc1nc2ncnn2c(N2CCC(C(=O)NCC3CCCO3)CC2)c1Cc1ccccc1 (centres undefined)
  13%	1.6%	i	i	1e-09
COc1cc(C(=O)OC(C)CN2CCN(C)CC2)cc(OC)c1OC (centres undefined)
  -2%	1.0%	i	i	2.3e-08
Cc1cc(NC(=O)CSc2nnc(-c3ccoc3C)n2N)no1
  0%	1.2%	i	i	1e-09
Fc1ccccc1CSc1nnc(-c2ccccc2)o1
  25%	-0.2%	i	i	1e-09
CCOC(=O)C(CC)Sc1nc(N)c(NC(=O)c2ccc(OC)c(OC)c2)c(=O)[nH]1 (centres undefined)
  ?	-1.2%	.	.	.
O=C1c2cccnc2C(O)N1Cc1ccc(F)cc1 (centres undefined)
  5%	0.6%	i	i	9.7e-09
CCN(CCNC(=O)C1CCCN(S(=O)(=O)CC)C1)c1ccccc1 (centres undefined)
  0%	-0.1%	i	i	7.1e-09
CCCCN(C(=O)CCC(=O)O)C1CC(=O)N(c2ccc(OCCC)cc2)C1=O (centres undefined)
  .	.	i	i	1e-09
COc1cccc2cc(-c3csc(CCn4nc(C)cc4C)n3)c(=O)oc12
  ?	1.9%	i	i	1e-09
Cc1ccc(S(=O)(=O)N2C(=S)SCC2(C)C)cc1
  ?	4.5%	.	.	.
O=C(NCc1ccccc1)N[C@@H](Cc1ccccc1)C(=O)O
  5%	1.4%	i	i	1.8e-08
OCCN(CCO)CC(O)Cn1c2ccccc2c2ccccc21 (centres undefined)
  ?	-0.8%	i	i	1.2e-08
COc1ccc(C2c3c(oc4ccccc4c3=O)C(=O)N2CC2CCCO2)cc1 (centres undefined)
  10%	-1.8%	i	i	4.3e-09
CCOCCn1c(=O)c2c(nc3n2CCN3c2ccccc2)n(C)c1=O
  -9%	-1.4%	i	i	2.3e-08
CCc1cccc(C)c1NC(=O)C1CCCO1 (centres undefined)
  2%	1.4%	.	.	.
Cc1noc(NS(=O)(=O)c2ccc(NC(=O)CSc3n[nH]c(-c4ccccc4)n3)cc2)c1C
  2%	0.9%	i	i	1.2e-08
O=C(CSCCNS(=O)(=O)c1ccccc1)Nc1ccccc1
  ?	4.3%	.	.	.
CCC(=O)n1nc(NCc2ccc(OC)c(OC)c2)nc1NCc1ccc(OC)c(OC)c1
  19%	0.2%	i	i	1e-09
Nc1n[nH]c(S(=O)(=O)CCCc2ccccc2)n1
  ?	1.4%	i	i	2e-08
O=C(Nc1ccc(Oc2ccccc2)cc1)C1CCCO1 (centres undefined)
  3%	-0.9%	.	.	.
CC(C)c1nnc(NC(=O)c2c(O)c3cccc4c3n(c2=O)CCC4)s1
  5%	1.3%	i	i	2.5e-08
c1coc(CNc2nc3ccccc3n2CCN2CCOCC2)c1
  15%	0.1%	i	i	2.6e-08
CCSc1nnc2c(n1)OC(c1ccc(C(=O)O)cc1)N(C(C)=O)c1ccccc1-2 (centres undefined)
  -5%	11%	.	.	.

Reprinted from the part before: 2 compounds, then new ones.
Below each SMILES – TSHR agonist	AID923	Resorufin autofl	A488 fluor	A647 fluor
c1coc(CNc2nc3ccccc3n2CCN2CCOCC2)c1
  15%	0.1%	i	i	2.6e-08
CCSc1nnc2c(n1)OC(c1ccc(C(=O)O)cc1)N(C(C)=O)c1ccccc1-2 (centres undefined)
  -5%	11%	.	.	.
COc1cc(C(=O)NCC(c2cccnc2)N2CCN(C)CC2)cc(OC)c1OC (centres undefined)
  1%	-0.4%	i	i	8e-09
O=S1(=O)CC(N2CCOCC2)c2ccccc21 (centres undefined)
  15%	2.4%	i	i	3.4e-08
CCOC(=O)C1CCCN(CC(=O)Nc2c(C(=O)OC)[nH]c3ccccc23)C1 (centres undefined)
  11%	-0.6%	i	i	5.4e-09
CCCCNC(=O)c1nnn(-c2ccccc2)c1N
  4%	-0.1%	i	i	2.5e-08
C=CCn1c(SCC(O)Cn2c3ccccc3c3ccccc32)nnc1-c1ccco1 (centres undefined)
  ?	5.3%	i	i	1e-09
N#Cc1cc2ccccc2nc1SCC(=O)Nc1ccccc1N1CCOCC1
  12%	0.7%	i	i	2.2e-08
O=C(O)c1ccc([N+](=O)[O-])c(P(=O)(O)O)c1
  -4%[11.4 µM]	7.2%[11.5 µM]	i	i	1e-09
Cn1c(SCC(=O)N2CCN(Cc3ccccc3)CC2)nnc1-c1ccncc1
  .	-1.7%	i	i	6e-09
CC12CC(NC(=O)N1c1cccc(C(=O)NCc3ccc4c(c3)OCO4)c1)c1cc(Cl)ccc1O2 (centres undefined)
  -10%[11.4 µM]	2.0%	i	i	2.1e-09
CC(=O)c1cccc(NS(=O)(=O)c2c(C)noc2C)c1
  -1%	-0.6%	i	i	5.1e-09
COc1ccc(S(=O)(=O)N2CCOCC2)cc1C(C)C
  3%	-1.3%	i	i	2.7e-08
Cc1cccc(-n2ncc3c(NCc4ccccc4)ncnc32)c1
  11%	0.3%	.	.	.
C=CCNC(=O)CN1C2CCCC1CC(NC(=O)c1ccccc1C)C2 (centres undefined)
  15%	2.9%	i	i	3.8e-08
CC(=O)c1ccc(NC(=O)c2cc(CC(C)C)on2)cc1
  2%	0.4%	.	.	.
CCn1cnc2sc(C(=O)Nc3ccc4c(c3)OCO4)c(C)c2c1=O
  8%	1.1%	i	i	1e-09
CCOC(=O)N/N=C1/C[C@@H](O)[C@@H](O)[C@@H]2[C@@H]3C(=O)N(Cc4ccc5c(c4)OCO5)C(=O)[C@H]3CC[C@H]12
  -6%[11.4 µM]	0.1%[11.5 µM]	.	.	.
CCc1ccc2oc(=O)cc(CN3CCCCC3C)c2c1 (centres undefined)
  ?	-1.7%	i	i	1e-09
N#CCSc1nnc(C2CCCCC2)n1Cc1ccccc1
  3%	0.3%	i	i	2.5e-09
CCOC(=O)C1=C(C)N(C)C(C)=C(C(=O)OCC)C1c1ccncc1
  20%	-1.9%	i	i	2.1e-08
O=C(CCC(=O)CCN1CCCCC1)CCN1CCCCC1
  .	.	i	i	1e-09
CCCSc1nc(N)c(C#N)c(-c2ccc(C)cc2)c1C#N
  -7%	-1.0%	i	i	3.5e-08
CCCCn1c(SCC(=O)Nc2cc(C)on2)nc2ccsc2c1=O
  ?	-0.5%	i	i	2.6e-08
COc1ccc(OC)c(C(=O)CSc2nnnn2C)c1
  1%	-0.5%	i	i	3.6e-08
CCS(=O)(=O)NCCc1cc2ccc(C)cc2[nH]c1=O
  ?	-0.3%	i	i	1e-09
O=C(c1csnn1)N1CCC2(CCCN(c3cccc(-c4ccccc4)c3)C2)CC1
  ?	0.9%	i	i	1e-09
CCc1cc(=O)oc2cc(OCC(=O)OC)c(Cl)cc12
  15%	-0.3%	.	.	.
CC(=O)C1=C(C)Nc2ncnn2C1c1cccc(OCc2ccccc2)c1 (centres undefined)
  14%	2.6%	.	.	.
Cn1c(COc2ccccc2)nnc1SCc1nc2ccccc2[nH]1
  3%	2.0%	i	i	3.7e-08
COc1ccc(C2CC(C(F)(F)F)n3ncc(C(=O)NCc4cccnc4)c3N2)cc1OC (centres undefined)
  3%	0.0%	i	i	4.5e-09
COc1ccc(CCNC(=O)CC2Nc3cc(C)c(C)cc3NC2=O)cc1OC (centres undefined)
  0%	3.8%	i	i	9.1e-09
CS(=O)(=O)N1CCc2cc(-c3csc(NC(=O)Cc4cccs4)n3)ccc21
  24%	2.1%	i	i	7.6e-09
COc1ccc(NC(=O)CS(=O)CC(=O)NC2CCCc3ccccc32)cc1 (centres undefined)
  1%	1.4%	i	i	1e-09
O=C(Nc1nccs1)Oc1ccccc1
  2%	0.0%	i	i	4.7e-08
COc1cc(S(=O)(=O)N2CCN(c3ccc(F)cc3)CC2)ccc1Cl
  .	.	i	i	9.9e-08
CCOC(=O)CN1C(=O)C(O)=C(C(C)=O)C1c1ccccc1 (centres undefined)
  1%	-1.8%	i	i	1e-09
CCN(C(=O)c1cc(Cl)ccc1OC)C1CCCCC1
  ?	-1.1%	.	.	.
CC(C)(C)OCC(NC(=O)C(CC(N)=O)NC(=O)OC(C)(C)C)C(=O)OC(C)(C)C (centres undefined)
  -4%	0.7%	i	i	5.6e-09
CCCCOc1ccc(C(=O)N2CCC(C)CC2)cc1
  17%	-0.4%	i	i	6.2e-09
